# MgrA-DNA mod: modulators of Staphylococcus aureus MgrA DNA binding; fluorescence polarization; inhibition, %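 (about 10 µg/mL by stock and volumes)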; hit rate 0.13% among 84,000;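 active = above 50% in either of two replicates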;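 also: 0% = protein plus DNA without compound and 100% = DNA alone without protein; higher means less MgrA bound to DNA so lower polarization; one replicate is shown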
# S aureus helic: blocks Staphylococcus aureus DNA helicase | purified S. aureus helicase, fluorescence unwinding assay; about half of the hits fall short of the stated cut | hit rate 0.05% among 120,000 | inhibition, %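 (tested at about 80 µM)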;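 active = both duplicates at 50% or more, or one of them with a favoured structure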;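 also: 0% = mean of negative control wells and 100% = mean of positive control wells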
# Starred values were filed as active, the others as inactive; . = not tested or not shown; & = joins results of further samples.
# Fields – MgrA-DNA mod | S aureus helic
CN(C)C1=NP(N(C)C)(N(C)C)=NC(c2ccccc2)=N1
  . | -4.0
CC(=O)Nc1cc([As](=O)(O)O)ccc1O
  -0.3 | .
O=C(O)c1cc2ccccc2oc1=O
  . | 15.0
OC1(c2ccccc2)CN2CCC1CC2 (stereo not drawn)
  -2.6 | 3.0
CC(C)(C)C1(O)CC2OC(=O)CC23C(=O)OC2OC(=O)C(O)C231 (stereo not drawn)
  -0.1 | 15.0
COc1ccc2sc(N(CCN(C)C)C(=O)Cc3ccccc3)nc2c1
  -4.5 | 4.0
CC(=O)NC(C(=O)NCc1ccc(F)cc1)C(C)C (stereo not drawn)
  . | 4.0
N#CCCn1cc(C(=O)N(c2ccccc2)c2ccccc2)c(-c2ccccc2)n1
  -1.9 | 8.0
CN1C(=O)/C(=C/c2ccc(I)o2)C(=O)NC1=S
  98.0* | 21.0
O=c1oc2ccccc2n1CN1CC=C(c2ccccc2)CC1
  . | -3.0
CC1(C)CSC(Nc2ccccc2F)=N1
  -2.0 | .
CCN1C[C@@]2(COC)C3[C@@H](OC)[C@H]4[C@@H]1[C@]3(C(OC)C[C@H]2O)C1C[C@@]2(O)[C@H](OC(=O)c3ccccc3)C1[C@]4(OC(C)=O)[C@@H](O)[C@@H]2OC (stereo partly drawn)
  0.4 | .
CN1C(C(=O)N2CCC3(CC2)OCCO3)=CC(c2ccc(F)cc2)=NS1(=O)=O
  . | -21.0
CN1C(=O)C(=Cc2ccc(OCc3c(F)cccc3Cl)cc2)C(=O)N(C)C1=O
  3.4 | .
CC(C)N(Cc1ccccc1)C(=O)C(C)(C)C
  1.2 | 14.0
COc1ccc(N=Cc2c(O)n(C)c(=O)[nH]c2=O)cc1
  2.8 | 4.0
COc1cc(OC)c(OC)cc1C=O
  3.6 | .
NC1CCc2cc(O)c(O)cc2C1 (stereo not drawn)
  0.8 | .
Cc1ccc(NP(C)(=O)c2nc3c(s2)CCCC3)cc1 (stereo not drawn)
  . | 2.0
O=C1NC(=O)C(=Cc2ccc3c(c2)OCO3)C(=O)N1
  7.5 | .
O=C(c1ccccc1)c1cc(Br)ccc1NC(=O)c1cc2ccccc2oc1=O
  -0.6 | .
Cc1ccc(C)c(CN2CCN(Cc3ccccc3)CC2)c1
  -0.8 | -6.0
N#CC1=C(N)Oc2c(c(=O)oc3ccccc23)C1c1ccc(F)cc1Br (stereo not drawn)
  -1.0 | .
CCCCCCc1cc(O)c2c(c1)OC(C)(C)C1=C2CCN(C)C1
  1.2 | -2.0
CC12CN3CC(C)(CN(C1)C3(C)C)C2O (stereo not drawn)
  3.5 | 7.0
O=P(O)(Nc1ccccc1)Nc1ccccc1
  0.2 | 3.0
c1ccc(CN2CCN(Cc3ccc4c(c3)OCO4)CC2)cc1
  4.2 | -2.0
C/C(=C\c1ccccc1)[N+](=O)[O-]
  1.1 | .
CCOCC(=O)NC1CCSC1=O (stereo not drawn)
  1.6 | 8.0
O=C(O)CCc1nc2ccccc2c(=O)n1-c1ccc(F)cc1
  . | 11.0
CCOC(=O)C1(c2ccccc2)CCN(C(=O)c2c(C)oc3ccc(OC)cc23)CC1
  -0.7 | 15.0
COc1ccc(CC2C(=O)NC(=O)N(c3ccccc3)C2=O)c(OC)c1 (stereo not drawn)
  -1.0 | 4.0
CN1C(=O)C(=Cc2ccc(Br)cc2)C(=O)N(C)C1=O
  . | 29.0
CCOC(=O)C1CCN(/C=C2/C(=O)NC(=O)N(c3cccc(C)c3C)C2=O)CC1
  -1.4 | 8.0
CC(C)C(C(=O)NC1CN2CCC1CC2)c1ccc(Cl)cc1 (stereo not drawn)
  . | 11.0
O=C(CN1CC=C(c2ccccc2)CC1)NCc1cccs1
  . | 12.0
COc1ccc(O)c(C(C)(C)C)c1
  . | 25.0
O=C1/C(=C/c2ccccc2C(F)(F)F)N2CCC1CC2
  3.2 | .
CC1(C)CC(=O)C(C2(O)C(=O)N(CN3CCOCC3)c3ccccc32)CO1 (stereo not drawn)
  -0.1 | 6.0
CCCCn1c(C)c(C(=O)OCC)c2cc(OC(=O)COc3ccccc3)c3ccccc3c21
  0.8 | .
COP(=O)(OC)C(O)C(Cl)(Cl)Cl (stereo not drawn)
  -0.6 | .
CN(N)P(=S)(c1ccccc1)N(C)N
  . | -2.0
Cc1cc(S(=O)(=O)NCC(C)C)ccc1OCC(=O)N1CCN(Cc2ccc3c(c2)OCO3)CC1
  2.7 | 24.0
N#CC(c1c[nH]c2ccccc12)N1CCOCC1 (stereo not drawn)
  . | -2.0
O=c1[nH]c2ccccc2c(=O)o1
  . | -5.0
CNC(=S)N1CC2CC(C1)c1cccc(=O)n1C2 (stereo not drawn)
  . | -4.0
CCC1CCCCN1CC(=O)c1ccccc1Cl (stereo not drawn)
  . | -15.0
CCN1CCC(NC2CCC(O)CC2)CC1 (stereo not drawn)
  4.8 | 14.0
Cc1ccc(-n2cccc2C=C2C(=O)NC(=O)NC2=O)cc1Cl
  . | 13.0
CCOCCCNC1CC(C)CC(C)(C)C1 (stereo not drawn)
  . | -4.0
CCc1cnc(NC(=O)CN2CC3CC(C2)c2cccc(=O)n2C3)s1 (stereo not drawn)
  . | 4.0
c1cncc(CNCCN2CCOCC2)c1
  -3.9 | 2.0
N#CCCn1cc(C(=O)Nc2ccccc2)c(-c2ccc3c(c2)OCCO3)n1
  -5.4 | 9.0
CCOC(=O)C1CCN(Cc2ccc(Cl)nc2)CC1
  -2.5 | .
COC(=O)C1=CN2C(C=C1)C(C(=O)OC)(C(=O)OC)[C@@H](c1cccnc1)[C@@H]2C#N (stereo partly drawn)
  51.8* | -26.0
CNCC(O)c1cccc(OC(=O)c2ccccc2C)c1 (stereo not drawn)
  . | 7.0
CCOC(=O)/C(=C(/C)N1CCCC1)P(=S)(N1CCOCC1)N1CCOCC1
  . | -19.0
C=CC(=O)N(CC)CC
  -6.8 | 11.0
Clc1ccc(CN2CCN(Cc3ccc4c(c3)OCO4)CC2)cc1
  . | 0.0
O=c1cc(C2CCNCC2)[nH][nH]1
  . | 12.0

# Next section.
# Fields – MgrA-DNA mod | S aureus helic
O=C(O)CCCc1ccc(N(CCCl)CCCl)cc1
  -0.2&17.1 | .
CC(=O)Nc1ccc(C=C2C(=O)NC(=S)NC2=O)cc1
  9.0 | .
CC(C)(C)c1cc(-n2nc3ccccc3n2)c(O)c(C(C)(C)C)c1
  -0.2 | -13.0
CCCc1nc(-c2ccccn2)nc(OC(=O)N(C)C)c1Cc1c(F)cccc1Cl
  0.3 | .
CCCCC/C=C\C/C=C\CCCCCCCC(=O)NCCO
  5.5 | .
COc1ccc(C=C2C(=O)C3CCN2CC3)cc1Br
  1.0 | .
C=C[C@H]1CN2CCC1C[C@@H]2[C@@H](O)c1ccnc2ccccc12 (stereo partly drawn)
  -2.7 | .
CN1CCCCC1c1cccnc1N (stereo not drawn)
  -1.5 | -4.0
CN(C)c1ccc(C2C3C=CC(C3)C2(C#N)C(=O)O)c(Br)c1 (stereo not drawn)
  -3.2 | -18.0
N#CC1=C(N)Oc2c(c(=O)oc3ccccc23)C1c1cccc(Br)c1 (stereo not drawn)
  -1.3 | .
O=C1CC(=O)N(c2ccccc2)C(=O)N1
  0.4 | 1.0
Fc1cccc(CN2CCN(Cc3ccccc3)CC2)c1
  . | 4.0
Cc1ccc(-c2nc(OC(=O)N(C)C)cc(C(F)(F)F)n2)cc1Cl
  0.2 | .
CN1CCN(Cc2cc(C(C)(C)C)c(O)c(C(C)(C)C)c2)CC1
  -0.9 | 9.0
CNC1C2CN3CCC(O2)C13 (stereo not drawn)
  0.5 | 4.0
CC1CN(C)C(C)(C)CC1(O)c1ccccc1 (stereo not drawn)
  0.6 | -3.0
O=C1NC(=O)C(=Cc2ccc(OCc3ccc(C(=O)O)cc3)c(Br)c2)C(=O)N1
  24.4 | .
CCOC(=O)c1c(C)n(Cc2ccccc2)c2ccc(O)cc12
  0.4 | 4.0
C=CCN1C(=O)NC(=O)/C(=C/c2ccc(-c3cc([N+](=O)[O-])ccc3Cl)o2)C1=O
  10.2 | .
CC(=O)Nc1nc(-c2ccccc2)[n+](-c2ccccc2)s1
  . | 1.0
N#CC(CCN1CCNCC1)(c1ccccc1)c1ccccc1
  0.4 | 5.0
Cc1nn(CCC#N)cc1C=C(C#N)C#N
  . | 21.0
CCc1cc(OC(=O)N(C)C)nc(-c2ccc(F)c(Cl)c2)n1
  1.9 | .
FC(F)(F)Oc1ccc(NC2=NCCCS2)cc1
  2.3 | .
COC(=O)N(c1ccc(OC)cc1)P1(=S)OCCC(C)O1 (stereo not drawn)
  5.4 | -13.0
O=c1c2ccccc2nc(-c2ccccc2)n1-c1ccccn1
  1.3 | 3.0
Nc1ccc(-c2ccc(N)cc2)cc1
  . | -3.0
CC1CN(C)CC(C)C1(O)c1ccccc1 (stereo not drawn)
  1.5 | -13.0
CC(C)c1ccc(/C=C/[N+](=O)[O-])cc1
  -1.0 | .
CN1CCc2cc3c(cc2C1O)OCO3 (stereo not drawn)
  2.1 | .

# Pulled by compound from the list above:
# Fields – MgrA-DNA mod | S aureus helic
O=C(O)CCCc1ccc(N(CCCl)CCCl)cc1
  -0.2&17.1 | .
O=C1CC(=O)N(c2ccccc2)C(=O)N1
  0.4 | 1.0
CC1CN(C)C(C)(C)CC1(O)c1ccccc1 (stereo not drawn)
  0.6 | -3.0
Nc1ccc(-c2ccc(N)cc2)cc1
  . | -3.0
CC(C)(C)c1cc(-n2nc3ccccc3n2)c(O)c(C(C)(C)C)c1
  -0.2 | -13.0
CNC1C2CN3CCC(O2)C13 (stereo not drawn)
  0.5 | 4.0

# Next compounds follow.
# Fields – MgrA-DNA mod | S aureus helic
CC(C)Sc1nc2ccccc2c(=O)n1-c1ccc(F)cc1F
  0.1 | -15.0
Cc1ccc(S(=O)(=O)Cc2ccc(C(=O)N3CCC4(CC3)OCCO4)o2)cc1
  5.8 | 1.0
CCN(C(=O)CN1CC=C(c2ccccc2)CC1)C1CCS(=O)(=O)C1 (stereo not drawn)
  . | 16.0
CNC(=O)Oc1ccccc1OCC(=O)NCc1ccccc1Cl
  0.0 | .
CC[C@H]1CN2CCC1C[C@@H]2[C@@H](O)c1ccnc2ccc(OC)cc12 (stereo partly drawn)
  0.8 | .
O=C(c1ccco1)c1cn(CCCOc2ccccc2)c2ccccc12
  . | 29.0
Cc1cc(C)cc(NC2=NCCCS2)c1
  . | 12.0
CN1C2CCC1CC(OC(=O)CCN1CCOCC1)C2 (stereo not drawn)
  1.6 | 8.0
CNC(=O)Oc1cccc(C)c1
  4.0 | .
N#CC(C#N)=Cc1ccc(Sc2ccccc2)o1
  5.2 | 4.0
CCN(CC)C(=O)Oc1nc(-c2ccccn2)nc(COC)c1CC1CC1
  -1.1 | .
CCN1CC=C(c2c[nH]c3ccccc23)CC1
  0.9 | 23.0
Fc1ccc(Sc2c(F)c(F)nc(N3CCNCC3)c2F)cc1
  -2.1 | -8.0
Cc1ccccc1CC#N
  . | -2.0
NNC(=O)c1ccccc1
  . | 5.0
Cc1cc2n(n1)C(c1cccnc1)Nc1ccccc1-2 (stereo not drawn)
  1.2 | 12.0
C/C(=N\N=C(N)N)c1ccccc1
  . | 10.0
CC1CCCC(C)N1CC#CCO (stereo not drawn)
  2.4 | 16.0
C=CCOc1ccc(/C=C2/C(=O)C3CCN2CC3)cc1
  4.0 | .
Cc1ccccc1NC(=O)OC1CN2CCC1CC2 (stereo not drawn)
  -1.2 | .
CC(=O)NC1CCSC1=O (stereo not drawn)
  4.8 | .
O=C(CNC(=S)N1CC2CC(C1)c1cccc(=O)n1C2)N1CCCC1 (stereo not drawn)
  . | 6.0
O=C1CN=C(c2ccc(F)cc2)c2cc(Br)ccc2N1
  . | 5.0
CCN1C[C@]2(OC(=O)c3ccccc3NC(C)=O)CC[C@H](OC)[C@@]34C2C[C@@H]([C@@H]13)[C@@]1(O)C[C@H](OC)[C@H]2CC4[C@]1(O)[C@H]2OC (stereo partly drawn)
  . | -22.0
CCc1ccc(CN2CCNCC2)cc1
  -7.2 | 9.0
Cc1ccc(CCN2CC(C(=O)N3CCC4(CC3)OCCO4)CC2=O)cc1 (stereo not drawn)
  . | 5.0
O=C(CN1CCCN(Cc2ccccc2)S1(=O)=O)NC1CCCC1
  . | 9.0
CC(C)n1[nH]c(=O)c2c1NC(=O)CSC2c1ccccc1 (stereo not drawn)
  . | 4.0
CCN1CCN(C(=Nc2ccccc2)P(=S)(N(C)C)N2CCN(CC)CC2)CC1 (stereo not drawn)
  . | 6.0
O=C1C2CCC1C(N1CCCC1)CC2 (stereo not drawn)
  . | -12.0
COc1ccc(NC(c2c[nH]c3ccccc23)P2(=S)OCC(C)(C)CO2)cc1 (stereo not drawn)
  -0.1 | 12.0
Cc1ccc2c(c1)C(c1ccccc1)=NCC(=O)N2C
  . | -21.0
Cc1nccn1Cc1ccc(Cl)nc1
  -1.2 | .
Cc1ccsc1-c1nc(CSCC(=O)N2CCC3(CC2)OCCO3)c(C)o1
  . | 18.0
CC(C)c1cccc(C(C)C)c1O
  0.0 | .
COc1ccccc1NC1=NCC(C)S1 (stereo not drawn)
  -0.2 | 11.0
CNC(=O)Oc1ccc2sc(=O)oc2c1
  . | 2.0
COC(=O)c1ccc(N2CCN(C)CC2)c(NC(C)=O)c1
  10.7 | 6.0
Cc1cc(C(=O)O)c(C)n1Cc1ccccc1
  . | 8.0
N#Cc1cc2c(nc1SCc1ccccc1F)C1CCN2CC1
  0.2 | 24.0
C1CCN2C(C1)N1CCCCC1N1CCCCC21 (stereo not drawn)
  4.8 | 9.0
CCOP(=S)(c1ccccc1)C(C#N)(CC)CC (stereo not drawn)
  . | 16.0
O=C(Cc1ccccc1)c1ccccc1
  -1.4 | -2.0
Cc1ccc(C(C)N2CCNCC2)cc1C (stereo not drawn)
  -6.8 | 11.0
C=CCSc1nc(C)cc(C)c1C#N
  -3.1 | 7.0
COc1ccccc1-n1c(SC)nc2ccccc2c1=O
  2.1 | 5.0

# Bioassay records deposited in PubChem by ICCB-Longwood Screening Facility, Harvard Medical School.

# Some of the compounds tested (hit frequency here may not be typical).
